Assay outcomes from PubChem.
Arbovirus anti = antivirals against arbovirus infection; arbovirus infection cell-based antiviral screen; inhibition, % at 10 µM; actives 0.37% (n = 200,000); AID 1251;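 active = inhibition from about 30%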;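 also: bluetongue infection of BSR cells; cell survival read as ATP light after 72 h; 0% = infected wells without compound and 100% = uninfected wells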
Mtb H37Rv = M. tuberculosis H37Rv growth inhibitors, H37Rv strain (AID 1626) | M. tuberculosis H37Rv growth inhibition; higher % means a stronger effect | one-dose inhibition, % at 10 µM; IC50 in µM for titrated hits | actives 0.95% (n = 220,000);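 active = confirmed in a dose series; inconclusive = inhibition above 80% but not taken into the dose series; inactive = below 80% or under 30% at every dose of the series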;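 also: bacteria incubated seven days before Alamar blue readout; 0% = bacteria only wells and 100% = bacteria with antibiotic wells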
RecA intein inh = inhibitors of M. tuberculosis RecA intein splicing. P9WHJ3. cell-free RecA intein splicing, fluorescence. inhibition, %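 (about 9 µM by stock and volumes)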. actives 0.75% (n = 290,000); in the data active = inhibition above about 30%; inconclusive = no clear call, values can overlap the other calls;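 also: 0% = vehicle wells and 100% = reference inhibitor control wells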
Target sequence (P9WHJ3 whole entry, looked up): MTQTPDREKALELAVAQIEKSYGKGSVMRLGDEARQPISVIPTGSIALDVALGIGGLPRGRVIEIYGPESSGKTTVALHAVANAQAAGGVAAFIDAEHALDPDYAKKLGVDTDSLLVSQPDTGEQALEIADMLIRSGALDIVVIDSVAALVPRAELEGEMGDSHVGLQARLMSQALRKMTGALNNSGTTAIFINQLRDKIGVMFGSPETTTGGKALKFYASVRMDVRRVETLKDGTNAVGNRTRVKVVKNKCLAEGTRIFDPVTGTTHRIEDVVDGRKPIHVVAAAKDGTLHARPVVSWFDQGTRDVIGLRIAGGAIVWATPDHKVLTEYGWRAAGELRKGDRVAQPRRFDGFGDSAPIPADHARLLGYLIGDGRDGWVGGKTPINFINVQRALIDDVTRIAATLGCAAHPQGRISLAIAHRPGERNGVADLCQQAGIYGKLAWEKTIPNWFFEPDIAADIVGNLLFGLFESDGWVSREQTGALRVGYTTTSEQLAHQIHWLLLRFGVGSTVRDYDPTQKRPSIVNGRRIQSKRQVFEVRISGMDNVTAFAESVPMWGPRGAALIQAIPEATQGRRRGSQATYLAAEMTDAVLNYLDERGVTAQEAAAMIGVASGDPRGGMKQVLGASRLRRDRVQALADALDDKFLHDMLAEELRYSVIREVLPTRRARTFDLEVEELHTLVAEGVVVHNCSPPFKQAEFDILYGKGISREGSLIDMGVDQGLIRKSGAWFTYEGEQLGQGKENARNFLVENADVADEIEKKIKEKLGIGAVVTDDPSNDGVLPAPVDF
YopH PTP inh = YopH (Yersinia) phosphatase inhibition | inhibition, %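 (about 10 µM by stock and volumes)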 | fluorescence Ex485/Em525 | actives 0.16% (n = 140,000);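 active = inhibition of 50% or more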;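 also: controls were vehicle for no effect and minimum signal wells for full effect; inactives centre near -20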
Mtb betalactam = beta-lactam sensitization of Mtb H37Rv | M. tuberculosis H37Rv growth with meropenem, percent inhibition; hits of this screen are not shown here | inhibition, % at 25 µM | actives 0.27% (n = 330,000);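 active = about 74% or more and at least 40 points above the plate without the antibiotic, then above 30% in a dose series; inconclusive = first-round hits that could not be retested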;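 also: growth measured after seven days incubation then overnight dye step; 0% = bacteria only wells and 100% = bacteria with antibiotic; twin plates without the antibiotic show which effects depend on it; some results filed as inactive read as strong as hits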
Arbovirus anti repeat = further read-out of Arbovirus anti, marked with its call; inhibition, %; measured here: 10K subset replicate screen; many hits read low in the repeat;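 first of two repeat runs on a subset; 0% = infected and 100% = uninfected wells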
* marks the source's active call; other numbers are inactive results; ? = inconclusive; . = not tested or not shown. A portion of the library. The share of hits here may be higher or lower than overall.

SMILES	Arbovirus anti	Mtb H37Rv	RecA intein inh	YopH PTP inh	Mtb betalactam	others
CCN(CC)C(=O)C1CCCN(Cc2nc(-c3cccs3)no2)C1 (centres undefined)	1.5	-5.1%	-0.6	.	-3.6
O=C(CCN1CCCCCC1)Nc1cccc(Cl)c1	2.2	2.9%	0.8	-10.4	-0.5
O=Cc1cn(CCC(=O)O)nc1-c1cccc(Br)c1	20.0	-13.3%	-16.0	.	-2.6
CCOC(=O)N1CCC(N2Cc3cccc(C(=O)NC(C)c4ccc5c(c4)OCCO5)c3C2=O)CC1 (centres undefined)	-21.5	7.7%	6.4	-14.8	1.1
COC(=O)C(=C/C(C)=C/c1cccs1)C(=O)OC	-27.9	-4.2%	12.0	.	42.6
CCOCCn1ccc2c(OCC(=O)NCc3ccccc3)cccc2c1=O	.	.	-0.5	.	-14.0
CCOc1cc(C(=S)N2CCCC2)ccc1O	.	.	-4.9	.	-5.0
COc1ccc(-c2cc(C(=O)N/N=C/c3ccc(OC)c(COCC(F)(F)C(F)F)c3)c3ccccc3n2)c(OC)c1	1.8	9.2%	-1.9	-12.1	-0.5
O=C(c1ccco1)N1CCN(C(=O)c2ccccc2OC(=O)C23CC4CC(CC(C4)C2)C3)CC1	6.3	0.1%	5.4	-35.2	.
C=CCn1c(O)c(C(C)=Nc2cccc(C(F)(F)F)c2)c(=O)[nH]c1=O	.	3.0%	-0.2	.	3.8
O=C1NC(=S)N/C1=C/c1cccc2ccccc12	.	.	2.4	.	-4.4
CC(CN1CCCCC1)OC(=O)c1ccc(Cl)cc1Cl (centres undefined)	2.2	-12.7%	0.3	3.9	-18.7
Cc1ccc(C)c(OC(=O)c2cncc(Br)c2)c1	-2.6	30.9%	-0.9	-43.0	26.6
CC1Cc2ccccc2N1S(=O)(=O)c1cccs1 (centres undefined)	-5.6	-14.2%	6.3	-6.3	0.8
O=C(c1ccccc1NS(=O)(=O)c1cccc2cccnc12)N1CCOCC1	16.3	-8.0%	-1.2	.	-4.8
Cc1ccc(S(N)(=O)=O)cc1NC(=O)C1CC2CCC1C2 (centres undefined)	-1.6	6.1%	5.2	-31.4	-2.2
Cc1cc(NC(=O)CSc2nnc(Nc3ccccc3)s2)no1	9.7	.	-0.7	-5.2	0.7
CCOC(=O)C(C)On1c(-c2cccc(Cl)c2)nc2ccc([N+](=O)[O-])cc21 (centres undefined)	-14.8	0.6%	.	-12.9	3.2
CC1CCCC(N2CCN(C(=O)c3cccc(F)c3)CC2)C1 (centres undefined)	-2.0	-10.2%	.	-20.5	1.2
O=C(Nc1ccccc1)n1cc(-c2ccccn2)c(N2CCOCC2)n1	2.6	.	0.4	.	-4.7

Brought forward from above: 4 compounds, then new ones.
SMILES	Arbovirus anti	Mtb H37Rv	RecA intein inh	YopH PTP inh	Mtb betalactam	others
Cc1cc(NC(=O)CSc2nnc(Nc3ccccc3)s2)no1	9.7	.	-0.7	-5.2	0.7
CCOC(=O)C(C)On1c(-c2cccc(Cl)c2)nc2ccc([N+](=O)[O-])cc21 (centres undefined)	-14.8	0.6%	.	-12.9	3.2
CC1CCCC(N2CCN(C(=O)c3cccc(F)c3)CC2)C1 (centres undefined)	-2.0	-10.2%	.	-20.5	1.2
O=C(Nc1ccccc1)n1cc(-c2ccccn2)c(N2CCOCC2)n1	2.6	.	0.4	.	-4.7
CC(C)NC(=O)C1CCN(C2CCN(C(=O)/C=C/c3cccs3)CC2)CC1	.	7.7%	-3.4	.	2.7
Cc1nc2sc3c(c2c(=O)[nH]1)CCCC3	.	0.4%	-5.2	.	4.4
O=Cc1ccc(O)c2ncccc12	.	0.378µM*	-15.3	.	.
CCCCc1ccc(/C(C)=N/Nc2cc(N3CCOCC3)nc(C)n2)cc1	.	.	17.5	.	13.3
CC(C)c1ccc(S(=O)(=O)N2CCN(CC(=O)Nc3ccc4c(c3)OCO4)CC2)cc1	-8.8	1.8%	.	-20.9	14.2
COCc1cc(C)nc(SCC(=O)Nc2cccc(C)c2C)c1C#N	-12.7	-3.2%	0.6	-28.7	-0.3
COc1ccc(CN2CCN(c3cccc(C)c3C)CC2)cc1OC	5.9	-6.1%	0.1	-18.6	-8.1	Arbovirus anti repeat=5.6
COc1cc(C(=O)N/N=c2/sc3ccccc3n2C)cc(OC)c1OC	-5.6	-5.9%	-4.7	-27.4	-1.7
C=CCn1c(CSc2nc3ccccc3s2)nnc1SCC(=O)NCc1cccnc1	5.3	-10.2%	1.9	13.7	-6.3
COc1ccc(C(CC(=O)O)c2ccc3c(c2)OCO3)cc1 (centres undefined)	.	.	-0.3	.	6.3
CC(C)N(Cc1cn[nH]c1-c1ccc(-c2ccccc2)cc1)Cc1nccn1C	-36.8	61.3%	6.3	.	86.0
CCS(=O)(=O)N1CCC(c2nc(-c3ccc(C(F)(F)F)cc3)no2)CC1	9.8	8.0%	-1.2	2.4	6.6
CC1CCCCN1C(=O)C1CC(c2ccc(F)cc2)=NO1 (centres undefined)	-1.4	-8.0%	-1.4	-46.2	2.7
Clc1cccc(Cn2ncc3ccccc32)c1	.	.	2.5	.	2.7
O=C(c1c(F)c(F)c(F)c(F)c1F)N1CCc2ccccc21	.	-1.7%	-2.2	-32.6	?
O=C(N/N=C\c1cc(Br)c(Br)o1)c1cncc(Br)c1	-6.6	-5.7%	3.2	-30.4	73.0
CCOC(=O)c1c(/N=C/C2C(=O)CC(C)(C)CC2=O)sc(C)c1C	5.4	-2.5%	-0.1	-7.5	-0.6
CC/C=C/C(=O)N1CC2(CC(c3cccc(NC(=O)CC(c4ccccc4)c4ccccc4)c3)=NO2)C[C@@H]1C(N)=O (some centres undefined)	.	7.8%	8.4	.	76.8
O=[N+]([O-])c1cc(Cc2ccccc2)cc(C=Nc2ccc(N3CCOCC3)cc2)c1O	-12.8	4.7%	-5.2	14.5	-6.4
Cn1nc(-c2ccccc2)c(COC(=O)c2cccc(Cl)c2)c1S(=O)(=O)c1ccccc1	0.8	4.3%	2.5	-43.8	-5.9

The final three compounds of the part above are carried over, then new ones follow.
SMILES	Arbovirus anti	Mtb H37Rv	RecA intein inh	YopH PTP inh	Mtb betalactam	others
CC/C=C/C(=O)N1CC2(CC(c3cccc(NC(=O)CC(c4ccccc4)c4ccccc4)c3)=NO2)C[C@@H]1C(N)=O (some centres undefined)	.	7.8%	8.4	.	76.8
O=[N+]([O-])c1cc(Cc2ccccc2)cc(C=Nc2ccc(N3CCOCC3)cc2)c1O	-12.8	4.7%	-5.2	14.5	-6.4
Cn1nc(-c2ccccc2)c(COC(=O)c2cccc(Cl)c2)c1S(=O)(=O)c1ccccc1	0.8	4.3%	2.5	-43.8	-5.9
Cn1cnnc1SCc1ccc(-c2ccc(Br)cc2)o1	1.1	>100µM*	9.7	-23.4	99.2
CCc1c(C)c(C#N)c2nc3ccccc3n2c1NCCOC	.	.	-20.3	.	37.4
O=C(CCCCCN1C(=O)[C@@H]2Cc3ccccc3CN2C1=O)Nc1ccccc1Cl	.	.	-1.1	.	-8.2
COc1cc(SC)ccc1C(=O)NCC1CCCO1 (centres undefined)	2.2	6.7%	-2.3	37.5	-10.7
Cc1ccc2c(c1)nnn2C1CCN(CC(=O)Nc2ccc3c(c2)OCCO3)CC1	-10.0	-1.2%	0.8	-41.0	-8.4
Cc1cc(C)c(C#N)c(SCc2ccc([N+](=O)[O-])cc2)n1	1.3	-0.7%	-1.8	.	-7.4
CCN1C(=O)/C(=C2\SC(N3CCCCC3)=NC2=O)c2ccccc21	-0.9	9.0%	.	-54.0	8.8
CCC(=NCC1CCCO1)c1c(O)n(-c2ccc(OC)cc2)c(=O)[nH]c1=O (centres undefined)	.	-2.4%	-0.9	.	-6.1
CC(=NCc1ccc(F)cc1)c1c(O)n(C)c(=O)n(C)c1=O	-31.6	-3.6%	2.2	-64.0	-14.9
CCOC(=O)CNC(=S)n1cnc(N)n1	-0.1	0.5%	5.9	.	65.8
Cc1ccc(N=Cc2c(O)[nH]c3ccccc23)c([N+](=O)[O-])c1	-4.0	4.7%	-2.1	.	4.0
O=C(/C=C/Nc1ccc(Br)cc1F)c1ccco1	-4.5	8.4%	-17.4	.	-2.2
Cc1cccc(C)c1NC(=O)c1ccc(-n2cnnn2)cc1	2.5	0.5%	0.1	-11.1	-2.9
COc1ccc(C2CC(c3ccc4ccccc4c3)=NN2C(=O)COC(=O)C2CCC(=O)N2)cc1 (centres undefined)	19.6	2.2%	3.1	.	-3.5
COc1ccccc1NC(=O)C(=O)NCCC1CCCCN1S(=O)(=O)c1cccs1 (centres undefined)	.	.	5.6	.	-1.3
COc1c(C=O)cc2c3c1CCCN3CCC2	.	.	0.2	.	5.9
CC1CC1C(=O)OCC(=O)NC(=O)c1ccccc1 (centres undefined)	.	.	1.2	.	-11.9
Cc1cc(Br)ccc1NC(=O)CNC(=O)COc1ccccc1C	.	.	1.9	.	-11.0
CCOC(=O)CNC(=O)C(Cc1ccccc1)NS(=O)(=O)c1cccs1 (centres undefined)	-5.2	-9.9%	.	-40.8	-0.2
Clc1ccc(Sc2ccc(/C=N/n3cnnc3)o2)cc1	10.6	9.4%	24.4	5.3	24.1
CC1(c2ccccc2)CC(C)(C)N2C(=O)C3(C(C#N)=C(N)Oc4cc(O)ccc43)c3cccc1c32 (centres undefined)	-36.9	57.1%	19.7	-18.9	?
Cc1cccc(C(=O)OCC(=O)c2cccc(Br)c2)c1O	.	.	0.6	.	9.0
On1c(-c2ccccc2)nc2ccccc21	.	34.1%	.	.	13.4
Cc1ccccc1NC(=O)Cn1c(=O)sc2ccccc21	-5.1	-4.5%	-0.1	.	-10.4
Cc1ccc(F)cc1N=Cc1c(O)c2ccccc2oc1=O	.	.	-2.5	.	-2.8
COc1ccc(N(C(=O)CNS(=O)(=O)c2ccccc2)C(C(=O)NCc2ccco2)C(C)C)cc1 (centres undefined)	3.1	1.9%	3.5	.	2.1
Cc1cc(C)nc(N2C(=O)CC(C(C)c3ccccc3)C2=O)n1 (centres undefined)	4.1	-11.3%	0.1	-16.4	10.4
CN1C[C@@H]2C(c3ccccc3)C3(c4cccnc4)CC2(C3)[C@H]1c1ccccc1 (some centres undefined)	.	1.0%	7.7	.	-12.8
CCCc1nnc(NC(=S)Nc2ccccc2)s1	18.5	?	-0.6	.	97.6
Cc1ccccc1-c1nnn(Cc2ccc(F)cc2Cl)n1	.	.	9.9	.	1.9
Cc1ccc(S(=O)(=O)N(C)Cc2nc(-c3ccc(Br)cc3)no2)cc1	4.4	-3.5%	-2.6	-10.5	2.1	Arbovirus anti repeat=-1.3
CN(C)c1ccc(NC(=O)CN2CCC(O)(c3ccccc3)CC2)cc1	-4.0	0.5%	-7.4	.	-0.7
O=C(CN1CCN(C(=O)c2ccco2)CC1)Nc1cc(Cl)ccc1Cl	-2.5	8.1%	-1.3	6.8	5.8
Cc1ccc(C(=O)NCCc2nnc(SCC(=O)Nc3cccc(C(=O)O)c3)n2C)cc1	.	.	0.5	.	0.5
Cc1cccnc1NC(=O)CCNC(=O)c1ccc(Br)cc1	.	.	0.0	.	-5.4
COc1ccc(N2CC(C(=O)N[C@@H](C)C(=O)NC3CCCC3)CC2=O)cc1 (some centres undefined)	.	.	1.7	.	47.1
O/N=C/c1cn(-c2ccccc2)nc1-c1ccccc1	.	.	3.1	.	69.0
CC1(C)Cc2c(C#N)c(N3CCN(C(=O)c4ccccc4)CC3)nc(Cc3ccccc3)c2CO1	-7.0	10.5µM*	14.7	-17.2	74.9
CCN(CC)CC(=O)Nc1ccc(-c2nc3cc(NC(=O)CN(CC)CC)ccc3o2)cc1	-22.1	-0.4%	-0.5	-17.1	3.3
C/C(CC1(O)C(=O)Nc2ccccc21)=N\O (centres undefined)	-13.3	-5.0%	-0.6	-11.2	-15.1
COc1cc(NS(=O)(=O)c2ccc(C)c(C)c2)c(OC)cc1Cl	-1.4	-7.7%	-0.2	-22.5	-4.2
CCc1ccc(C2c3[nH]c4ccccc4c3CCN2C(=O)CN2CCN(CC)CC2)cc1 (centres undefined)	-24.9	5.5%	0.0	.	13.1
COC(=O)Nc1ccc(S(=O)(=O)N2CCCC(C(=O)O)C2)cc1 (centres undefined)	-2.7	-0.8%	.	.	-1.9
CCNC(=O)C(=O)Nc1cc2c3c(c1)CCN3C(=O)CC2	.	.	-1.1	.	5.3
O=[N+]([O-])c1ccc(N2CCCCCC2)c([N+](=O)[O-])c1	-0.7	-5.1%	5.8	-21.8	?
O=C1c2[nH]nc(-c3ccccc3O)c2C(c2ccccc2F)N1Cc1ccco1 (centres undefined)	-39.2	-0.4%	13.1	-41.6	?
O=c1c2ccccc2ncn1CCOCCOc1ccc([N+](=O)[O-])cc1	3.2	2.3%	-1.3	.	-2.7
CCOC(=O)N1CCC(NC(=O)C2CCCN(S(=O)(=O)c3cccc4nsnc34)C2)CC1 (centres undefined)	-1.3	-1.4%	2.3	-24.9	2.2
